Screens deposited in PubChem BioAssay by National Center for Advancing Translational Sciences (NCATS).
PINK1 modulator: A Quantitative High throughput Screen to Identify Chemical Modulators of PINK1 Expression; PINK1 immunofluorescence, high-content cytometry, 24 h; AID 624263, 2012; hit rate 0.2% among 410,000; Potency, µM (doses to about 76.6 µM), for inactives: at the top dose activation (PINK1 increase), hits mostly activators; active = well fitted activation curve with a large enough effect; inconclusive = small, poorly fitted or top-dose-only effect; inactive = flat fitted curve, though single readings scatter; cell line not stated here;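 note: potency is the fitted concentration of half-maximal effect; % of control where 0% means no effect; nearly all actives have a fitted effect of over 65% in size; a mitochondrial uncoupler was the plate control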
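PINK1 protein, normally rapidly degraded, was detected by immunofluorescence after 24 hour compound treatment of a stable cell line. Titration data (5 concentrations) came from laser-scanning cytometry, with CCCP-treated wells as controls.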
CtBP-E1A blk: qHTS Assay for Inhibitors of the CtBP/E1A Interaction; CtBP / adenovirus E1A interaction (AlphaScreen); AlphaScreen GST-E1A/His-CtBP binding, 1536-well; hits give low values; control for the full effect not named in the record; activity change, % (no concentration beside the values); hit rate 0.49% among 340,000; AID 651724, 2012; in the data active means activity change below about -65%; inconclusive means about -30% to -65%; inactive means above about -30%; note: % is set by controls: 0 for no effect and ±100 for the full control effect; compound concentration not given in the record
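Protein mix (5X: 125 nM each GST-E1A, His-CtBP) was incubated with pinned compound 2 h at 37 deg C in dark, in 50 mM Tris pH 8.0 buffer with 300 mM NaCl. Glutathione donor and nickel acceptor beads followed; AlphaScreen signal read after 1 h.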
D2 ag: Beta-Arrestin HTS for Positive Allosteric Modulators of the Human D2 Dopamine Receptor: Agonists | D(2) dopamine receptor (Homo sapiens), P14416 | DiscoveRx PathHunter D2 beta-arrestin, luminescence, 90 min; 100% = 57 uM dopamine signal | activation, % (no concentration beside the values) | hit rate 0.084% among 360,000 | AID 624465, 2012; in the data active = activation above about 40%; inconclusive = about 15% to 40%; inactive = below about 15%; note: compound concentration not given in the record; the text of the record calls up to 30% inactive
Target sequence (P14416 whole entry, looked up): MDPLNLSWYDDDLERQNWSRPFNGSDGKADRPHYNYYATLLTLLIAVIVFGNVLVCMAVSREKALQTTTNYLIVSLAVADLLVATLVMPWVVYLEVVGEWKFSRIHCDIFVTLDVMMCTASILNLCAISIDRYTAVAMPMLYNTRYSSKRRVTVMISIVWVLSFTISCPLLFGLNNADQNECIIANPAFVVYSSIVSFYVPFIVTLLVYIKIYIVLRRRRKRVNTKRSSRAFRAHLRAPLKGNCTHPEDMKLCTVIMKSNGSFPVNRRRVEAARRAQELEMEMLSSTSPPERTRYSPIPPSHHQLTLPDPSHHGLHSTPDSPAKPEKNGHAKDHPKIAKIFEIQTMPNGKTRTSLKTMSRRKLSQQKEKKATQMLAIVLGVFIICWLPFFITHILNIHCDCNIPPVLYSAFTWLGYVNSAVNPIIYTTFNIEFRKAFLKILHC
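DiscoveRx PathHunter D2 beta-arrestin cells (2,100/well) attached overnight, then compound-stimulated 90 min at 37 C in HBSS/10 mM HEPES/0.1% Tween-20 buffer; beta-galactosidase complementation read by luminescence after 1 h at ambient temperature. Dopamine 57 uM final (EC100) as control.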
Six1-Eya2 inh: qHTS Assay for Inhibitors of the Six1/Eya2 Interaction; activity change, % (test concentration not listed); AlphaScreen GST-Six1/His-Eya2 binding, biochemical; hits give low values; control for the full effect not named in the record; hit rate 0.56% among 360,000; Homeobox protein SIX1 (Homo sapiens) + Protein phosphatase EYA2 (Homo sapiens), …; in the data active = activity change below about -65%; inconclusive = about -30% to -65%; inactive = above about -30%; note: % is set by controls: 0 for no effect and ±100 for the full control effect; compound concentration not given in the record
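AlphaScreen luminescence read after one hour at 37 °C in darkness. Pin-transferred compounds met GST-Six1 and His-Eya2 protein (5X stock 250 nM/500 nM) plus glutathione donor and Ni-chelate acceptor beads (5X, 50 ug/mL).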
D2 potentiator: Beta-Arrestin HTS for Positive Allosteric Modulators of the Human D2 Dopamine Receptor: Potentiators; D(2) dopamine receptor (Homo sapiens), P14416; DiscoveRx D2 beta-arrestin cells, luminescence, 90 min; 100% = 57 uM dopamine signal; potentiation, % (concentration not given with the values); hit rate 0.23% among 360,000; AID 624464, 2012; active = potentiation of 50% or more; inconclusive = 30% to 50%; inactive = 30% or less;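 note: compound concentration not given in the record; tested on top of an EC20 dose of dopamine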
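PathHunter D2 cells, attached overnight at 37 deg C, received compound in DMSO plus dopamine at EC20 (50 nM final) for 90 min at 37 deg C. Beta-arrestin recruitment was read as luminescence after 1 h with detection reagent at ambient temperature.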
TRPML1 agonist: qHTS for Agonists of the Human Mucolipin Transient Receptor Potential 1 (TRPML1) | activation, % (no concentration beside the values) | hit rate 0.12% among 410,000 | TRPML1-expressing cells, Ca2+ dye fluorescence, FDSS; host cell line not named in the record; reference of the full effect not given here | Mucolipin-1 (Homo sapiens), Q9GZU1; in the data active = activation above about 50%; inconclusive = about 30% to 50%; inactive = below about 30%; note: 0% is about no effect; the text of the record puts the active cut at 80%
Target sequence (Q9GZU1 whole entry, looked up): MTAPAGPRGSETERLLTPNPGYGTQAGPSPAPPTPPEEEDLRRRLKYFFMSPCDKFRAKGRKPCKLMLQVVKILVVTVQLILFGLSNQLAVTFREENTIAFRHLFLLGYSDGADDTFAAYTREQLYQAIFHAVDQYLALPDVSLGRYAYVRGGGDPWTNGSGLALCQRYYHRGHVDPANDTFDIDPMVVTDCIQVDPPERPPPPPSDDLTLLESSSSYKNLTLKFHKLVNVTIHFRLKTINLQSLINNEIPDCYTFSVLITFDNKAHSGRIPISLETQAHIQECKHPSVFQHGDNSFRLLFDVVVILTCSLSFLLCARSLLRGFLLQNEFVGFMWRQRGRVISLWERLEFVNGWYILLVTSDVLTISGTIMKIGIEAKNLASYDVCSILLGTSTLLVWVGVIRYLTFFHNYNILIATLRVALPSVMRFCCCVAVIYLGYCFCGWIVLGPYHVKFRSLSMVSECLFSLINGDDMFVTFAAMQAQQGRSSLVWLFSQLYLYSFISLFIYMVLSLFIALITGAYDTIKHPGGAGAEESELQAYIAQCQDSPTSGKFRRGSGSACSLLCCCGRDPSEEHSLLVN
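Kinetic FDSS Ca2+ read in Tet-induced TRPML1-DL cells (ABD Ca8 dye plus quencher, 45-90 min RT loading): baseline, then compound, then 110 s agonist window; EC80 agonist 54-4 at 4uM final added afterwards for a 110 s antagonist window.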
Numbers without * were called inactive; u = inconclusive; x = not tested or not shown; & = joins results of further samples; [ ] = another dose, or the depositor's remark.

SMILES	PINK1 modulator	CtBP-E1A blk	D2 ag	Six1-Eya2 inh	D2 potentiator	TRPML1 agonist
COC(=O)c1ccc(NC(=S)N2CCN(C)CC2)cc1	-0.5%	x	0.0	-0.7	-13.0	0.7
CCOC(=O)C1CCN(C(=O)c2cc(S(=O)(=O)N3CCc4ccccc43)ccc2OC)CC1	1.7%	-3.1	-1.0	-0.8	-1.7	-1.1
CCN1CCC(O)(/C=C/c2ccc(C)cc2)C(C(=O)/C=C/c2ccc(C)cc2)C1 (stereo not drawn)	-2.0%	-1.1	-3.2	6.0	-31.0	6.4
O=C(c1ccc2c(=O)n(Cc3ccc(Cl)cc3)c(=S)[nH]c2c1)N1CCOCC1	5.1%	2.7	-1.3	-3.2	-4.6	-0.4
COc1ccccc1Nc1nc(NCCO)nc(N)c1[N+](=O)[O-]	-1.6%	u	-0.3	u	-6.0	-0.3
COCc1ccc(-c2c(-c3ccsc3)sc3ccccc23)cc1	1.4%	x	-1.7	13.9	0.6	1.4
Cc1ccc(S(=O)(=O)N2CCN(C(=O)CN3C(=O)NC4(CCOc5ccccc54)C3=O)CC2)cc1 (stereo not drawn)	-0.7%	5.7	-3.0	-0.4	-11.9	-0.9
CN(CC(=O)Nc1ccc(N2CCOCC2)cc1)CC(=O)Nc1ccc(C(F)(F)F)cc1	11.4%	-7.9	-1.1	-16.4	-4.1	1.2
O=c1[nH]c(CSc2ccccc2)nc2c1oc1ccccc12	1.4%	x	-4.4	2.3	-13.7	-0.1
O=C(Cn1c(=O)oc2ccccc21)Nc1nc(-c2ccccc2)cs1	x	3.1	1.4	5.2	15.4	1.6
CCc1nnc(NC(=O)C2CCN(c3nccc(C)n3)CC2)s1	3.4%[38.3 µM]	1.0	-0.8	2.7	-1.1	-0.1
O=C(COC(=O)/C=C/c1ccccc1[N+](=O)[O-])NCc1ccco1	-2.1%	-13.6	-0.3	-12.6	-1.1	0.5
Nc1nonc1-n1nnc(C(=O)N/N=C/c2ccc(OCc3ccccc3)cc2)c1CN1CCCCC1	3.7%	x	1.0	-6.2	-9.0	1.2
CCN(C(=O)CN1CCN(c2ccccc2OC)CC1)c1c(N)n(Cc2ccccc2)c(=O)[nH]c1=O	-0.6%	-2.2	-1.5	3.0	15.3	-0.4
Cc1cccc(C(=O)NCC(=O)OCC(=O)N2CCN(S(=O)(=O)c3ccc(C)cc3C)CC2)c1	2.1%	-22.0	-2.6	3.0	-2.1	1.7
Cc1ccc(-c2noc(/C=C/c3ccccc3)n2)cc1	u	3.2	-0.5	67.7	-7.8	1.8
O=C1CCC(C(=O)OCC(=O)N2N=C3/C(=C/c4ccccc4)CCCC3C2c2ccccc2)N1 (stereo not drawn)	-1.0%[38.3 µM]	-10.7	-0.8	-10.2	-9.5	-0.8
Cc1cccc(C)c1NC(=O)CN1CCN(C(=O)CNC(=O)c2ccc(N3CCCC3=O)cc2)CC1	0.6%	-0.1	-5.2	10.8	-11.1	0.1
CCOC(=O)CCCNC(=O)COC(=O)c1cccc(C)c1O	-2.0%	4.0	-1.2	0.0	-14.8	-0.9
Cc1ccc(NC(=O)NC2CCCCC2)cc1S(=O)(=O)N1CCOCC1	0.2%	-0.8	1.5	-13.3	-1.2	-0.3
CCCCN(C(C)=O)c1c(CC)nc2ccc(C(=O)NCCCN(C)C)cn12	0.5%	-11.6	-6.5	-29.6	-1.8	0.4
C/C(=N\NC(=O)c1ccccc1)c1nc2ccccc2n1C	0.6%	13.4	0.4	0.2	1.6	0.6
CCOC(=O)c1c(C)oc2c1c(C(c1cccnc1)N1CCCCC1)c(O)c1ccccc12 (stereo not drawn)	1.9%	2.1	u	1.4	102.5*	0.7
Cc1oc(-c2cccc(Cl)c2)nc1CS(=O)(=O)CC(=O)NCCN1CCCC1	5.1%	-9.6	-2.9	-0.4	-12.6	-0.1
O=C(CN1C(=O)C(c2ccccc2)Oc2cccnc21)NCc1ccccc1F (stereo not drawn)	0.0%	-2.0	-4.3	0.7	-8.9	1.4
Cc1cc(C)n(CCN(C)C(=O)CCc2nnc(-c3ccc4c(c3)OCO4)o2)n1	2.9%	4.9	0.3	14.6	-2.0	0.1
Cn1c(=O)[nH]c(=O)c2c1nc(Br)n2CC(O)COc1ccc(Cl)cc1 (stereo not drawn)	2.1%	x	6.9	16.7	11.4	0.3
CC(C)c1ccc(CNNC(=O)c2ccccc2)cc1	6.4%	x	-0.1	0.7	-8.9	0.2
CN(CC(=O)Nc1ccc(Cl)cc1)CC(=O)Nc1ccc(C(N)=O)cc1	2.4%	-2.5	-1.2	-4.0	-9.1	-0.1
O=[N+]([O-])c1ccc(NC(=S)N2CCN(c3ccccn3)CC2)cc1	1.4%	5.7	4.1	0.1	3.4	-0.8

Ordered by value in Six1-Eya2 inh (ascending): five from the list above.
Molecule	Six1-Eya2 inh
CCCCN(C(C)=O)c1c(CC)nc2ccc(C(=O)NCCCN(C)C)cn12	-29.6
CN(CC(=O)Nc1ccc(Cl)cc1)CC(=O)Nc1ccc(C(N)=O)cc1	-4.0
O=[N+]([O-])c1ccc(NC(=S)N2CCN(c3ccccn3)CC2)cc1	0.1
CC(C)c1ccc(CNNC(=O)c2ccccc2)cc1	0.7
Cc1cc(C)n(CCN(C)C(=O)CCc2nnc(-c3ccc4c(c3)OCO4)o2)n1	14.6

(list continues)
SMILES	PINK1 modulator	CtBP-E1A blk	D2 ag	Six1-Eya2 inh	D2 potentiator	TRPML1 agonist
CN(C)CCSc1nc(N)c2c3c(sc2n1)COC(C)(C)C3	0.4%[38.3 µM]	37.9	-1.5	0.0	-12.1	0.0
COc1ccccc1-c1cccc([C@@H]2C[C@H]3[C@H](CON3C)CN2C(=O)C(C)(C)C)c1	-0.8%	-22.9	-1.3	1.3	-4.7	0.8
O=C(c1cc([N+](=O)[O-])ccc1Cl)N1CCN(c2ccccc2)CC1	0.6%	-3.3	-6.7	-6.5	1.8	-0.7
COc1ccccc1C(=O)NC(=S)Nc1cc(C(=O)O)ccc1C	-0.3%	22.3	0.7	1.9	2.1	0.7
Cn1c(Nc2cccc(Cl)c2)nc2ccccc21	6.9%	5.8	-6.5	0.4	-10.1	-0.7
CCOc1ncccc1C(=O)OCC(=O)NCCCc1ccccc1	0.1%	-13.3	-0.4	6.1	-10.2	1.4
O=C(O)CCC(=O)N1N=C(c2ccccc2)CC1c1ccc(Br)cc1 (stereo not drawn)	1.9%	10.0	-3.5	11.6	-12.0	-0.1
Cc1csc(CN(C)C(=O)C2CCC(=O)N(CCN(C)C)C2)n1 (stereo not drawn)	0.5%	x	3.3	0.9	-9.9	-0.5
Cc1ccc2cccc(OCC(=O)N3CC(C)CC(C)C3)c2n1 (stereo not drawn)	-0.1%	-2.7	-5.1	-23.4	-1.8	0.1
CC(=O)N1CCN(S(=O)(=O)c2cccc(C(=O)OCc3ccc(C(C)(C)C)cc3)c2)CC1	3.3%	3.0	-1.2	-11.2	-16.6	0.3
CC(C)c1c(O)nc(SCCC(=O)O)[nH]c1=O	-1.1%[38.3 µM]	4.0	1.6	0.9	2.8	0.0
Fc1cccc(C2NN=C(c3ccccc3)S2)c1 (stereo not drawn)	-0.8%	-11.1	1.0	-9.9	-5.6	0.5
O=C(NC1CCCCC1)c1cc(-c2ccco2)on1	2.1%	-12.7	0.0	1.5	-2.9	-0.3
Cc1ccc(-n2c(C)nnc2SCC(=O)N2CCOCC2)cc1	1.4%	4.8	-4.8	6.3	3.1	0.8
COc1ccc(-c2sccc2C(C)C(=O)O)cc1 (stereo not drawn)	-0.1%	-0.6	-3.5	2.0	-7.1	-0.8
CCc1nc2ccccc2n1Cc1cc(=O)n2cc(C)ccc2n1	-0.6%	-0.5	-4.4	-3.2	2.6	-1.1
O=C(Nc1ccc(S(=O)(=O)Nc2ncccn2)cc1)c1ccccc1Br	-0.4%	2.0	-0.2	-2.7	-0.5	2.1
CCCC(=O)Nc1cc(OC)c(C(=O)OC)cc1Cl	1.6%	1.9	-4.9	-0.4	3.0	-0.4
Cc1cccc(C(=O)N/N=C2\CS(=O)(=O)N(C)c3ccsc32)c1	3.8%	-5.7	-1.9	0.4	-2.9	0.0
CCOc1ccc(Cn2c(=O)sc3ccccc32)cc1	3.8%&0.1%	x	-0.4	22.2	-12.6	1.0&2.3
O=C(O)C1Cc2ccccc2CN1C(=O)c1ccco1 (stereo not drawn)	1.2%	x	-4.2	3.1	1.8	x
CCC(C)Sc1ccc([C@@H]2[C@@H]3C(=O)N(C)C(=O)[C@@H]3[C@]3(C(=O)OC)CCCCN23)cc1OC (stereo partly drawn)	2.5%	-0.8	-7.2	-4.2	-10.8	0.1
CCOc1ccc(CCN2C(=S)N([C@@H](CC(C)C)CN3CCCC3CN3C(=S)NC[C@@H]3CC(C)C)C[C@@H]2Cc2ccc(O)cc2)cc1 (stereo partly drawn)	16.2%	-7.5	-0.4	-16.3	-3.0	-0.9
COC1CCN(Cc2cn(Cc3ccccc3)nc2-c2cc3ccccc3o2)CC1	-0.9%	-5.6	-5.4	-9.1	-26.8	x
C=CCn1c(SCc2c(C)noc2C)nnc1C1COc2ccccc2O1 (stereo not drawn)	1.7%	3.6	-3.5	6.1	-11.9	-0.6
COc1cccc2cc(-c3csc(NC(=O)CCC(=O)NCCCN4CCC(C)CC4)n3)c(=O)oc12	-0.8%	0.8	0.6	-4.5	-0.6	3.7
Cc1ccc(NS(=O)(=O)c2ccc(C(=O)NCC(c3ccco3)N3CCCCC3)cc2)cc1 (stereo not drawn)	1.1%	-7.8	-5.2	3.2	-19.3	14.1
COC(=O)[C@@H]1[C@H]2C[C@H]3c4[nH]c5ccccc5c4CCN3C[C@@H]2CC[C@@H]1O	0.0%&0.9%	-0.9&-3.2	-2.7&-5.4	-18.4&-0.5	-34.4&-36.1	-0.4&0.7
Cc1cc(=O)oc2cc(NC(=O)C(C)Oc3ccccc3)ccc12 (stereo not drawn)	2.0%	-0.4	-2.2	-2.4	-2.4	-0.4
O=C(NCc1ccccc1Cl)c1csc([C@H]2C[C@H](O)[C@@H](CO)O2)n1	0.1%	5.6	-0.5	11.2	-6.7	0.3
CCOC(=O)c1c(N)ssc1=S	x	7.9	-4.1	-4.0	-33.6	0.3
CCOc1ccc(-c2nnc(-c3ccncc3)o2)cc1	0.1%	-2.5	-2.2	-1.8	-0.2	-0.9

Full records from above. Order of values: PINK1 modulator	CtBP-E1A blk	D2 ag	Six1-Eya2 inh	D2 potentiator	TRPML1 agonist
CCOC(=O)c1c(N)ssc1=S as listed: x	7.9	-4.1	-4.0	-33.6	0.3
COC1CCN(Cc2cn(Cc3ccccc3)nc2-c2cc3ccccc3o2)CC1 as listed: -0.9%	-5.6	-5.4	-9.1	-26.8	x
